# RE007 growth inh – qHTS Assay for Inhibitors of the HIV-1 protein Vpr; S. pombe RE007 Vpr strain, BacTiter-Glo ATP luminescence, 24 h; control for the full effect not named in the record; Potency, µM (titrated, usually from 92.2 µM), inactives show at the highest dose activity change, negative = less growth; 360,000 tested, 0.21% active; AID 651644, 2012; active = well fitted falling curve with a large enough effect; inconclusive = small, poorly fitted or top-dose-only effect; inactive = no such curve, though single readings can be large or run the other way;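 further: on the % scale 0 is the no-effect control and ±100 the full control effect; nearly all actives have a fitted effect of over 50% in size; the assay follows cell death caused by Vpr and the record does not say whether a fall means rescue or toxicity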
#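 Fission yeast RE007 carrying one integrated HIV-1 vpr copy, seeded at OD 0.01 in PMG+AL medium with 23 nL pinned compound. Grown 24 h at 30 degrees; viability read by BacTiter-Glo luminescence after 5 min.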
# Cruzain noTriton – qHTS Assay for Promiscuous and Specific Inhibitors of Cruzain (without detergent); Cruzipain (Trypanosoma cruzi), P25779; purified cruzain, Z-FR-AMC fluorescence, no detergent; Potency, µM, inactives show max response, negative = inhibition, hits mostly inhibitors; 200,000 tested, 2.3% active; AID 1476, 2009; active means well fitted curve in the direction sought with a large enough effect; inconclusive means small, poorly fitted or top-dose-only effect, or another doubt; inactive means no such curve, though single readings can be large; an effect the other way counts as inactive or inconclusive;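 further: plate controls were enzyme without inhibitor for no effect and buffer without enzyme for full effect; nearly all actives have a fitted effect of over 40% in size; top concentration of the series not given in the record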
# Target sequence (P25779 123-467 limits assumed): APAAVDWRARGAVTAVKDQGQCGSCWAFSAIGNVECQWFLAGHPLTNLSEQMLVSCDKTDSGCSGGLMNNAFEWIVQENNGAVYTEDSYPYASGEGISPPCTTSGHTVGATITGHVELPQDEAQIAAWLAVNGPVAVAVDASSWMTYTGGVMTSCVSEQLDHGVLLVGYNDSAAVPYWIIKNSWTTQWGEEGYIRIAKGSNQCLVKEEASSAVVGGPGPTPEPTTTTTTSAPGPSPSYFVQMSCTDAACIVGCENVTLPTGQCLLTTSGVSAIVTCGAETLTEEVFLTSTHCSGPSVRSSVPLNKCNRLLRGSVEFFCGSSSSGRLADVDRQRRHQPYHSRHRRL
#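 Purified cruzain at 1.5 nM, pre-incubated 15 min with compound at room temperature in 100 mM sodium acetate pH 5.5, 5 mM DTT, 0.00005% Triton X-100. Reaction started with 2 uM Z-FR-AMC; AMC fluorescence increase over 60 s gives rate.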
# NS1 function inh – qHTS Assay for Inhibitors of Influenza NS1 Protein Function; S. cerevisiae slowed by influenza A NS1, growth recovery by OD600; Potency, µM (series often up to 46.1 µM), for the others: at the highest dose activity, positive = more growth; 270,000 tested, 0.4% active; AID 2326, 2010; further: actives are rising curves; nearly all actives have a fitted effect of over 50% in size
#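 OD600 was taken as the measure of yeast growth restored by compound in an NS1-expressing S. cerevisiae strain. Cells had been washed out of glucose medium and diluted 1:100 into galactose -URA medium, pH 6.0.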
# 2A StopGo – High Throughput Screening for Foot and Mouth Disease Virus Antivirals. human cells with a luciferase reporter of 2A StopGo recoding; control for the full effect not named in the record. Potency, µM (top dose mostly 57.9 µM), without a hit: at the top dose signal change, negative = less light. 410,000 tested, 1.2% active. AID 1159524, 2015; active = well fitted falling curve with a large enough effect; inconclusive = small, poorly fitted or top-dose-only effect; inactive = no such curve, though single readings can be large or run the other way; tested in HEK293T cells; further: on the % scale 0 is the no-effect control and ±100 the full control effect; nearly all actives have a fitted effect of over 45% in size; luciferase light after 4 h
# Lassa entry inh – qHTS for Inhibitors of binding or entry into cells for Lassa Virus; 300,000 tested, 1.2% active; Lassa virus pseudotype entry inhibition, cell reporter; control for the full effect not named in the record; Potency, µM (highest dose often 37.9 µM), without a hit: at the top dose activity change, negative = inhibition, most hits filed as inhibitors; active means well fitted inhibition curve with a large enough effect; inconclusive means small, poorly fitted or top-dose-only effect, or effect the other way; inactive means flat fitted curve, though single readings scatter; tested in HEK293 cells; further: on the % scale 0 is the no-effect control and ±100 the full control effect; nearly all actives have a fitted effect of over 50% in size; luciferase read-out
# SARS PLpro yeast – qHTS of Yeast-based Assay for SARS-CoV PLP. S. cerevisiae expressing SARS-CoV PLpro, growth rescue; control for the full effect not named in the record. 330,000 tested, 0.19% active. Potency, µM (series often up to 32.9 µM), without a hit: top-dose activity, positive = growth rescue; further: 0% is about no effect; nearly all actives have a fitted effect of over 55% in size; growth read by luminescence after 48 h
# Marburg entry inh – qHTS for inhibitors of binding or entry into cells for Marburg Virus; Marburg virus pseudotyped entry inhibition, cell reporter; control for the full effect not named in the record; about a third of the inactives were read at about 46 µM; Potency, µM (top dose mostly 37.8 µM), for the others: at the highest dose activity change, negative = inhibition, actives largely listed as inhibitors; 300,000 tested, 1.8% active; AID 540276, 2011; active = well fitted inhibition curve with a large enough effect; inconclusive = small, poorly fitted or top-dose-only effect, or effect the other way; inactive = flat fitted curve, though single readings scatter; tested in HEK293 cells; about a fifth of its hits are not listed in these tables; further: on the % scale 0 is the no-effect control and ±100 the full control effect; luciferase read-out
# Cruzain inh Det – qHTS Assay for Promiscuous and Specific Inhibitors of Cruzain (with detergent); purified cruzain, Z-FR-AMC fluorescence, 0.01% Triton; Potency, µM, for inactives: max response, negative = inhibition, actives largely listed as inhibitors; 200,000 tested, 0.43% active; AID 1478, 2009; active means well fitted curve in the direction sought with a large enough effect; inconclusive means small, poorly fitted or top-dose-only effect, or another doubt; inactive means no such curve, though single readings can be large; an effect the other way counts as inactive or inconclusive;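 further: plate controls were neutral wells for no effect and buffer without enzyme for full effect; nearly all actives have a fitted effect of over 40% in size; top concentration of the series not given in the record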
#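 Enzyme 1.5 nM, Z-FR-AMC 2 uM, NaOAc 100 mM pH 5.5, DTT 5 mM, Triton X-100 0.01%; 15 min RT compound preincubation; kinetic ex360/em450, 60 s delta.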
# * = called active by the depositor; u = inconclusive; x = not tested or not shown; & = joins results of further samples; [ ] = another dose, or the depositor's remark. Unless noted, the call rests on the fitted dose curve; in most records, active means well fitted rising curve with a large enough effect; inconclusive means small, poorly fitted or top-dose-only effect; inactive means no such curve, though single readings can be large or run the other way. Potency means the concentration at half of the fitted maximal effect.
canonical_smiles | 2A StopGo | NS1 function inh | Lassa entry inh | Cruzain noTriton | RE007 growth inh | Cruzain inh Det | SARS PLpro yeast | Marburg entry inh
O=C(CCN1CCOCC1)NNC(=O)c1ccc([N+](=O)[O-])cc1[N+](=O)[O-] | -12.0% | x | -3.0% | x | -12.4% | x | 4.2% | -1.9%
CCCn1cc(SCC(=O)NCc2ccco2)c2ccccc21 | 6.6% | -71.8% | 1.4% | -11.8% | -13.5% | 2.5% | -5.0% | 0.4%
COc1ccccc1N(C)S(=O)(=O)c1ccc(C(=O)OCC(=O)NCc2cccs2)cc1 | -8.0% | -5.2% | -0.1% | x | -2.5% | x | -1.7% | -4.3%[46.1 µM]
Cc1cccc(CNc2ccc(C(CC(N)=O)NC(=O)c3ccccc3)cc2[N+](=O)[O-])c1 (stereo not given) | 0.0% | -15.4% | x | x | -15.0% | x | -0.3% | x
C/C(=N/NS(=O)(=O)c1ccc(Br)cc1)c1c[nH]c2ccccc12 | 15.3% | -5.1% | 8.8% | x | 6.9% | x | -10.1% | -16.9%
CC1(C)Cc2cccc(OCC(O)CN3CCN(c4ccccn4)CC3)c2O1 (stereo not given) | u | -2.5% | -13.8% | -18.8% | 13.3% | 0.0% | -7.7% | -26.0%&-26.0%
COc1ccc(Oc2cccc(Cl)c2CNC(=O)CCCC(=O)O)cc1 | -10.2% | -1.9% | x | x | -3.8% | x | 1.9% | x
Cc1cccc(C2=NN(c3ccccc3)[C@@H](C(=O)N3CCOC3=O)[C@@H]2c2ccc(F)cc2)c1 | -16.2% | x | x | u | -6.1% | -7.0% | -8.8% | x
CN(C)CCNC(=O)c1coc(=O)c(Br)c1 | -10.0% | -8.1% | 4.1% | -9.2% | 4.8% | -2.4% | 1.3% | -4.3%
COc1cccc(-c2nc(SCC(=O)N3CCc4ccccc43)c3c(=O)n(C)c(=O)n(C)c3n2)c1 | 0.0% | x | 6.8%[46.1 µM] | 12.4% | x | 1.9% | x | x
CCC(=O)Nc1nonc1-c1nc2ccccc2n1CC(C)C | u | -10.2% | 7.3% | -4.6% | -15.8% | -6.0% | -0.9% | -11.9%
CC(C)NC[C@@H](O)COc1ccc(COCCOC(C)C)cc1 | -12.9% | x | x | 3.5%&-2.0% | x | 1.2%&3.0% | x | u
Cc1ccc(CN2C(=O)CSC(C)C2=O)cc1 (stereo not given) | -16.5% | -5.0% | 10.7%[46.1 µM] | x | 4.6% | x | -3.2% | -26.8%[46.1 µM]
Cc1ccc(Cl)cc1N1CCN(C(=O)CSc2nnc3n2C(C)(C)Cc2ccccc2-3)CC1 | 12.6µM* | 28.7% | u | 0.2% | 21.9% | -2.5% | 22.9% | 11.6µM*
COc1ccccc1NC(=O)Cc1c(C(=O)O)[nH]c2ccc(Cl)cc12 | -23.1% | x | 14.7%[46.1 µM] | 3.1% | x | -8.0% | x | x
N#Cc1c(C(F)(F)F)cc(-c2ccccc2Cl)[nH]c1=O | -29.8% | -11.4% | 10.4% | 3.0% | 9.8% | -7.9% | -4.1% | 23.4%
COc1ccc(CNC(=O)C23CC4CC(CC(Br)(C4)C2)C3)cc1 | -2.3% | 2.9% | 13.3% | x | 12.1% | x | 1.0% | 2.5%[46.1 µM]
Cc1cc(NS(=O)(=O)c2ccc(NC(=O)CCSc3ccc(F)cc3)cc2)nc(C)n1 | 41.3%[activator] | 3.3% | x | x | 2.6% | x | -0.3% | x
O=C1CC(c2ccccc2Cl)=NN(c2ncnc3ccccc23)C1=O | 64.5%[activator] | x | -4.1% | x | -11.0% | x | -1.8% | -14.4%
Cn1nnnc1SCC(=O)Nc1cccc(S(=O)(=O)N2CCCCC2)c1 | 7.2% | x | -3.2% | x | 3.9% | x | 2.4% | -0.8%
Cc1ccc(NC(=O)c2ccn(C(=O)Nc3ccccc3)n2)c(C)c1 | 9.5% | x | 17.9%[46.1 µM] | x | -14.1% | x | 1.6% | u
Cc1ccc(CS(=O)Cc2ccc(C(=O)NC3CCC(C)CC3)o2)cc1 (stereo not given) | 5.0% | -0.1% | 26.8%[46.1 µM] | x | 2.8% | x | u | u
O=c1[nH]c(-c2ccccc2)c(-c2ccccc2)o1 | 4.9% | 3.4% | x | x | -1.0% | x | 1.2% | x
CC1Cc2ccccc2N1CC(=O)Nc1ccc(S(N)(=O)=O)cc1 (stereo not given) | -0.9% | u | 6.0% | x | -20.5% | x | 0.3% | 0.2%
CCOc1ccc2nc(SCC(=O)N3c4ccccc4Sc4ccccc43)c(C#N)cc2c1 | -11.8% | 5.4% | 8.5% | 3.98µM* | -2.4% | -1.0% | -7.0% | u
O=C(O)CC1C(=O)OCN1C(=O)OCc1ccccc1 (stereo not given) | x | 3.7% | 2.8% | -10.4% | 12.6% | 2.1% | 5.2% | u
Cc1ccc2c(CNCCc3ccco3)c(C(=O)O)n(Cc3ccc(F)cc3)c2c1 | -17.4% | x | -3.9%[46.1 µM] | u | x | -5.2% | x | x
COc1ccc(CCNC(=O)c2ccc3c(c2)c(C)c(C)n3Cc2ccccc2)c(OC)c1OC | -14.5% | x | -20.2%[46.1 µM] | u | x | 0.0% | x | x
Cc1cccc(OCc2nc3c4c(ncn3n2)-c2ccccc2CC42CCCC2)c1 | -25.5% | 3.0% | 5.1% | u | 5.0% | 1.7% | 10.2% | 29.2%
COc1ccc(CN2CCN(C)CC2)cc1OCc1ccccc1 | -6.4% | 5.0% | 11.6%[14.3 µM] | 3.9% | -4.4% | 1.7% | 1.1% | 13.2%
O=C(CSCc1ccccc1Cl)NCCSc1ccccn1 | 51.1%[activator] | x | x | x | 15.2% | x | -3.6% | 25.9%[46.1 µM]
COc1ccc(OCc2cc(C(=O)N(C)Cc3cnccn3)no2)c(Cl)c1 | 29.3% | -1.2% | -15.2% | x | -9.6% | x | 2.7% | -5.8%
C=CCn1c(NC(=O)c2ccccc2)nc2ccccc21 | 22.0% | -40.9% | x | x | -8.6% | x | -4.0% | x
Cc1nc2[nH]c(=O)c3c(n2n1)NC1=C(C(=O)CC(C)(C)C1)C3c1ccc(F)cc1 (stereo not given) | 6.3% | -0.1% | u | 1.1% | 1.8% | -14.4% | u | 5.2%
O=C(Cc1cccs1)Nn1c(Cc2cccs2)nc2ccccc2c1=O | 7.0% | -6.0% | -5.0% | u | -6.7% | 0.6% | -2.3% | 2.0%
COc1ccc2c(c1)C=C(CN1CCN(Cc3ccccc3C)C(CCO)C1)CO2 (stereo not given) | -23.7% | 9.7% | 0.4%[46.1 µM] | x | -13.8% | x | -7.4% | u
C=CCn1c(NCCc2ccccc2)nc2c1c(=O)n(C)c(=O)n2C | 25.1µM* | -0.9% | u | 10.3% | -3.8% | 4.2% | -0.5% | u
ClC(Cl)c1nnc(-c2ccccc2)c(-c2c[nH]c3ccccc23)n1 | -19.9% | -17.5% | -2.7% | -25.9% | x | -2.7% | -2.4% | u
NCC(=O)CCC(=O)O | -17.9%&-8.2% | x | x | 2.5% | -7.2%[18.4 µM] | 4.4% | 3.5% | x
c1ccc(CC2CCN(Cc3nc(-c4ccccc4)no3)CC2)cc1 | 34.2%[activator] | -38.4% | 0.6% | -10.6% | -10.2% | -4.7% | -7.9% | 12.5%
CCOC(=O)Cc1ccc(NC(=O)N2CC(C)Oc3ccc(Cl)cc32)cc1 (stereo not given) | -12.7% | x | 0.8%[46.1 µM] | 11.2% | x | -1.6% | x | x
Cc1cccc(NC(=O)c2ccc3snnc3c2)c1C | 1.1% | x | 14.3%[46.1 µM] | 3.3% | x | -1.5% | x | 6.8%[46.1 µM]
CC1CCCN(S(=O)(=O)c2ccccc2[N+](=O)[O-])C1 (stereo not given) | 10.6% | 2.1% | -19.3% | 1.7% | 6.5% | -1.4% | 1.1% | 0.8%
Cc1cccc(N2C(=O)c3cccc(Oc4ccc(Cl)cc4)c3C2=O)c1 | -18.3% | 10.1% | -6.3% | -4.3% | 14.2% | -6.2% | 14.2% | 12.6%
CC(=O)c1ccc(OC(=O)c2ccc(Br)o2)cc1 | 21.5% | u | 3.7% | 1.5% | -19.1% | 0.7% | 1.8% | 9.6%
COc1cccc(OC)c1C(=O)NNC(=O)c1cccc(COc2ccc3c(c2)CCC3)c1 | -17.1% | 7.0% | u | -1.2% | -6.8% | -5.1% | -1.1% | u
COc1ccc(C(=O)C2CCCN(C(=O)c3cccc(Cn4cccn4)c3)C2)cc1F (stereo not given) | -6.0% | 4.0% | x | x | -9.4% | x | 6.1% | x
COC(=O)c1ccc(NC(=O)c2c(C(=O)Nc3ccccc3)sc3nc(C)cc(=O)n23)cc1 | -0.2% | x | 3.9% | x | -2.8% | x | -0.2% | -31.3%
CCCCN(C(=O)NC(=O)Nc1ccccc1OCC)S(C)(=O)=O | -1.9% | 4.3% | 0.0% | 5.4% | 0.3% | -5.9% | 2.1% | 1.3%
Cc1ccc(C(=O)NCCC(=O)N2CCOCC2)cc1 | 49.0%[activator] | 13.1% | x | x | 10.8% | x | -0.8% | x
Cc1ccc(NC(=O)C2CCCN2S(=O)(=O)c2ccc(F)cc2)c(C)c1 (stereo not given) | -14.3% | -10.8% | 1.2% | -1.3% | 48.9% | 4.3% | 0.6% | 1.5%
NNC(=O)c1[nH]c2ccc(Br)cc2c1-c1ccccc1 | -24.0% | u | u | x | 8.9% | x | -0.1% | u
CC1=C(C)CC(C(=O)Nc2ccc(C(N)=O)cc2)C(C(=O)O)C1 (stereo not given) | -17.1% | 1.0% | 7.4% | -7.6% | 5.7% | 0.1% | 10.5% | 11.2%
O=C(Nc1ccc(Br)cc1C(=O)c1ccccc1)c1ccccc1 | 32.2%[activator] | x | -5.6%[46.1 µM] | 2.3% | x | -3.0% | x | x
